Screening data (PubChem)
GALR2 agonist: GALR2 receptor agonists, primary screen, cell-based. GALR2-expressing cells, agonist activation read-out. 140,000 tested, 0.48% active. Galanin receptor type 2 (Homo sapiens), O43603. activation, %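 (tested at 5 µM)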;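 active = above mean plus 3 SD of all compounds, about 5% in these data, not always enough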;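 note: 0% = vehicle buffer wells and 100% = reference agonist at full effect; tested in CHO reporter cells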
Target sequence (O43603 whole entry, looked up): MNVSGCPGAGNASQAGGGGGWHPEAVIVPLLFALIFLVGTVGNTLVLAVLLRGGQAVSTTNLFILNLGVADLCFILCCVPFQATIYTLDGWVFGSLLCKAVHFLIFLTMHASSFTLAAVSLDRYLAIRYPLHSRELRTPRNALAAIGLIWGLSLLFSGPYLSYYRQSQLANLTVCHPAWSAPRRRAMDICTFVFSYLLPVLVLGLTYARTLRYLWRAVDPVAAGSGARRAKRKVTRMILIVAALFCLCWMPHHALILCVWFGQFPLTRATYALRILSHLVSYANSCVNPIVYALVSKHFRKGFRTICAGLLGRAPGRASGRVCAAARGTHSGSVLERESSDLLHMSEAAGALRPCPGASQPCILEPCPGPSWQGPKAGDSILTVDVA
PKD1 inh: inhibitors of human PKD1 kinase, biochemical, fluorescence polarization | inhibition, %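 (about 10 µM by stock and volumes)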 | Serine/threonine-protein kinase D1 (Homo sapiens), Q15139 | AID 797, 2007 | PKD1 kinase fluorescence polarization assay | 200,000 tested, 0.056% active;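 active = inhibition of 50% or more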;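 note: controls were vehicle for no effect and a reference inhibitor for full effect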
Insulin prom inh: inhibitors of insulin promoter-driven GFP, primary screen, imaging, TRM-6 cells (human fetal islet line), eGFP reporter, cell count; 130,000 tested, 0.9% active; reporter expression induced with tamoxifen; inhibition, % at 2 µM;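 active = inhibition above the mean plus 3 SD, with well images judged a real hit on visual review, cut at about 60% in these data, passing the limit was not always enough; inconclusive = inhibition over the cutoff but images rejected on review; inactive = inhibition not above the cutoff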
RGS16-Gao: modulators of RGS16 binding to Galphao, primary screen, biochemical, human proteins, multiplexed bead flow cytometry | 220,000 tested, 0.38% active | binding response (% of control), % at 10 µM | AID 1441, 2008 | Regulator of G-protein signaling 16 (Homo sapiens) + Guanine nucleotide-binding protein … | bead-based flow cytometry RGS16-Galphao binding, fluorescence; actives lie on both sides;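 active = below 25% or above 175%, edge rows of some plates excepted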;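 note: Galphao activated by GDP with aluminum fluoride before binding; 100% = wells without compound and 0% = beads without RGS; some results beyond the cut were filed as inactive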
Target sequence (O15492 whole entry, looked up): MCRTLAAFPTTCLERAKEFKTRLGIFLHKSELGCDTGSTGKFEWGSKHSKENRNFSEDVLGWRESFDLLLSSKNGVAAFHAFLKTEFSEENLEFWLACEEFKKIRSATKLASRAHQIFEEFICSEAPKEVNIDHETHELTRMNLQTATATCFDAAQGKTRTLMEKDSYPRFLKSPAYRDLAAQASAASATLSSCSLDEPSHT
Target sequence (P09471 whole entry, looked up): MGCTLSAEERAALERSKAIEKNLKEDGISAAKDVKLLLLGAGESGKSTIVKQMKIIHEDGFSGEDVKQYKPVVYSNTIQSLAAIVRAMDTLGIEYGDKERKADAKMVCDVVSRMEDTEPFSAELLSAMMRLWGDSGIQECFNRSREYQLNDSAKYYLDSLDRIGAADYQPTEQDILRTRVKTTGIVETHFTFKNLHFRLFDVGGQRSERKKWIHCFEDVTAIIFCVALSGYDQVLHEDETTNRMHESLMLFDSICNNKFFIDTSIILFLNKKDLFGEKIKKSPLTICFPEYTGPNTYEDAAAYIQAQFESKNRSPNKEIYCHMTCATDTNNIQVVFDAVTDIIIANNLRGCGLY
HSV augment: enhancers of HSV replication in host cells, fold increase, host cell viability. maximum fold increase. 220,000 tested, 0.005% active. HSV replication augmentation in cells;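 active = peak rise of 1.5-fold or more in the series; inconclusive = self-fluorescent or not available for retest; tested in PC3 cells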;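 note: first round at 10 µM; read as green reporter fluorescence; hits show the peak of a series up to 25 µM; 1 = signal of infected wells without compound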
Insulin prom inh cell count: second read-out of Insulin prom inh, no call of its own (marks repeat the call); normalized cell count, %; measured here: cell count, toxicity; reference of the scale not given here;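 cells exposed to compound for 48 h; stained nuclei by imaging scaled within each plate; lower means fewer cells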
HSV augment primary fold: recorded beside HSV augment, whose call it bears; fold increase; compound at 10 µM; measured here: primary screen fold increase 10 uM; tested in PC3 cells;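 GFP signal in the first replicate; 1 = infected wells without compound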
An asterisk follows results filed as active; i = inactive; ? = inconclusive; . = no result given.

SMILES	GALR2 agonist	PKD1 inh	Insulin prom inh	Insulin prom inh cell count	RGS16-Gao	HSV augment	HSV augment primary fold
Cc1cccc(OCC(=O)N2CCN(C(=O)c3ccc([N+](=O)[O-])cc3)CC2)c1	.	-6	.	.	101	i	1
COC(=O)c1cn(-c2ccccc2)nc1-c1ccccc1	-1.0	7	31	94	102	i	0.99
CC1(C)CC(NC(=O)c2ccc3c(c2)OCO3)CC(C)(C)N1	-2.1	-6	-35	34	94	i	1
CCOc1ccc(-c2[nH]nc3c2C(c2ccc(O)cc2)C(C#N)=C(N)O3)cc1 (stereo unspecified)	-1.1	-13	0	106	99	i	0.7
Cc1ccccc1C(=O)NC1CCN(Cc2nnnn2CCc2ccccc2)CC1	1.8	2	0	80	114	i	1.1
CS(=O)(=O)c1[nH]nc(-c2cccc(Cl)c2)c1C#N	.	.	.	.	103	i	1.1
COc1ccccc1Oc1coc2cc(O)ccc2c1=O	-0.6	-4	-30	93	100	i	1.1
O=C(COc1ccc2c(C(F)(F)F)cc(=O)oc2c1)Nc1ccc(N2CCOCC2)cc1	-0.2	-7	.	.	99	i	0.78
O=C(NCc1cccnc1)c1ccc(Cl)c(S(=O)(=O)Nc2ccccc2C(=O)NCc2cccnc2)c1	.	4	-67	84	101	i	0.98
COC(=O)c1ccc(NC(=O)CSc2nnc(COc3ccccc3)n2C)cc1	-0.8	-11	-33	109	97	i	0.85
COc1cccc(NC(=O)c2oc3ccccc3c2NC(=O)C2CC2)c1	0.8	-10	0	119	108	i	0.78
CCc1cccc2c1NC(=O)C2(O)CC(=O)c1cccs1 (stereo unspecified)	.	-3	.	.	96	i	0.94
CSc1ccccc1NC(=O)c1ccc(Br)o1	-2.4	3	-23	86	99	i	0.85
CCN(Cc1ccccc1)Cc1c(F)cccc1F	-1.0	-8	27	94	105	i	1.1
CCC(=O)Nc1c2c(nn1-c1ccc(C)cc1C)CSC2	-1.3	-17	.	.	102	.	.
C=CCN1C(=O)N/C(=C/c2ccccc2OCC(=O)Nc2ccc(F)cc2)C1=O	-0.4	-2	-38	128	104	i	0.63
CC(=O)Nc1ccc(NC(=O)c2ccccc2CCc2ccccc2)cc1	.	-8	.	.	101	i	0.91
O=c1cc(CO)oc(C(Nc2ccccn2)c2cccc(F)c2)c1O (stereo unspecified)	-1.9	-5	.	.	100	i	0.96
Cc1ccccc1C(=O)N/N=C/c1ccc([N+](=O)[O-])s1	-2.9	-10	-427	78	99	i	0.63
Cc1cc2ncn(C(=O)c3cc(-c4ccccc4)nc4ccccc34)c2cc1C	-1.0	4	20	153	101	i	0.97
COCC(C)NC(=O)NC1(C(F)(F)F)Oc2ccc(Cl)cc2O1 (stereo unspecified)	-1.1	-6	71*	103*	91	i	1
O=c1c2c3c(sc2n2cnnc2n1CCc1ccccc1)CCCC3	-1.3	-4	5	141	114	i	0.94
CCc1nc2oc3cc(OC)ccc3c(=O)c2c(=O)n1Cc1ccco1	-3.0	-15	10	106	113	?	.
O=C(NC(=S)NCCC1=CCCCC1)c1ccc(Br)o1	.	2	.	.	98	i	0.86
O=S(=O)(c1cccc2nsnc12)N1CCOCC1	-1.4	0	-64	34	100	i	0.88
COc1cc(OC)cc(C(=O)N[C@H](C(=O)NCc2ccco2)C(C)C)c1	.	3	.	.	103	i	1.3
CCCOc1ccc(/C(O)=C2/C(=O)C(=O)N(CCN(C)C)C2c2ccco2)cc1 (stereo unspecified)	-2.7	3	15	118	84	i	0.95
O=S(=O)(c1ccc(Br)cc1)c1nc(-c2ccco2)oc1NCC1CCCO1 (stereo unspecified)	.	-7	.	.	102	i	1
COc1ccc(OC)c(S(=O)(=O)N2c3ccccc3CC2C)c1 (stereo unspecified)	-1.3	-9	63	88	101	i	1
Cc1ccc(Sc2ncccc2C(=O)NC2CCCCCC2)cc1C	-1.2	-11	-33	167	104	i	0.91
Cc1ccc2nsnc2c1S(=O)(=O)N1CCOCC1	-0.1	8	-23	96	96	i	1
CC(C)OC(=O)NS(=O)(=O)c1cccc([N+](=O)[O-])c1	.	-2	0	84	47	i	1
COc1ccc(C2CC(=O)CC(=O)C2n2cncn2)cc1 (stereo unspecified)	0.3	14	.	.	94	i	0.86
CC(C)CCNC(=O)C(c1ccncc1)N(C(=O)Cn1nnc(-c2ccc(F)cc2)n1)c1ccccc1F (stereo unspecified)	.	4	.	.	97	i	0.98
COc1ccc(/C=C/C(=O)NCCN=C2NS(=O)(=O)c3ccccc32)cc1	.	-3	.	.	95	i	1
O=C(C1=C[C@@H](C2CCCCC2)C[C@@H](OCCCCO)O1)N1CCN(Cc2ccc3c(c2)OCO3)CC1	.	-1	.	.	101	i	0.91
COc1ccc(-c2ccc(Nc3ccc(C(=O)N4CCOCC4)cc3)nn2)cc1OC	1.0	6	15	125	96	i	0.85
O=C1C2C3C=CC(C4CC34)C2C(=O)N1/N=C/c1c[nH]c2ccccc12 (stereo unspecified)	.	3	.	.	98	i	1.1
CCC(C(=O)OCC(=O)NC(=O)NC(C)(C)C)c1ccccc1 (stereo unspecified)	.	-2	.	.	101	i	0.95
Cc1ccc(-n2c(C)cc(C)c(C#N)c2=O)cc1	-4.5	3	-71	92	105	i	0.99
O=C(CS(=O)(=O)c1c[nH]c2ccccc12)N1CCCCC1	-0.7	-11	35	105	10	i	0.82
CCOC(=O)c1c(C)nc(C)c(C(=O)OCC)c1-c1ccc(O)c(OC)c1	.	5	.	.	94	i	1.1
CC(NC(=O)C1CC1)C(c1cccs1)N1CCOCC1 (stereo unspecified)	.	.	.	.	99	i	0.89
CCCC1=C([O-])C2N=CC=CC2=[N+](c2ccccn2)C1=O (stereo unspecified)	-0.6	-1	44	43	129	i	0.98
Cc1ccsc1C(=O)OCC(=O)Nc1cccc(S(=O)(=O)N2CCOCC2)c1	-0.1	7	.	.	103	i	1
CC1CN(S(=O)(=O)c2ccc(C(=O)Nc3nccs3)cc2)CC(C)O1 (stereo unspecified)	.	.	.	.	88	i	0.83
CCC(=O)NC(=S)Nc1ccccc1C(F)(F)F	-0.1	-5	14	93	.	i	1.1
CCOC(=O)c1ccccc1NC(=S)N1CCC(C)CC1	-0.4	-6	-38	128	102	i	1
Nc1nnc(-c2cccc(F)c2)s1	.	.	.	.	102	i	0.87
CCOC(=O)c1c(-c2ccc(Cl)cc2)c(C#N)c(=O)n(N)c1N	-1.1	-3	-9	121	47	i	0.9

The listing continues.
SMILES	GALR2 agonist	PKD1 inh	Insulin prom inh	Insulin prom inh cell count	RGS16-Gao	HSV augment	HSV augment primary fold
COc1cccc(-c2cc(C(F)(F)F)n3ncc(C(=O)N4CCc5ccccc5C4)c3n2)c1	.	7	.	.	81	i	0.85
Cc1cc(C)c(S(=O)(=O)c2ccccc2)c(N2CCOCC2)n1	.	-3	6	74	99	i	0.97
CCn1c(C(=O)N2CCC(C(=O)NCc3cccs3)CC2)cc2sccc21	0.1	-2	.	.	59	i	0.94
O=C(CSc1nccc(=O)[nH]1)NN(c1ccccc1)c1ccccc1	.	-4	.	.	108	i	1.1
COc1cc(NC(=O)c2nccn2C)cc(C(=O)Nc2cccc(C(F)(F)F)c2)c1	.	.	.	.	100	i	0.63
CCCOC(=O)c1cc(=O)[nH]c2ccccc12	0.4	3	.	.	93	i	0.94
COC1=C(N)C(=O)c2nc(-c3nc(C(=O)O)c(C)c(-c4ccc(OC)c(OC)c4O)c3N)ccc2C1=O	-1.1	7	-376	4	109	i	0.51
COc1ccccc1NC(=O)c1ccc(-c2ccccc2[N+](=O)[O-])o1	.	3	36	90	101	i	0.94
CC(c1ccccc1)N1CC(C(=O)N2CCN(c3ccccc3)CC2)CC1=O (stereo unspecified)	-2.4	-10	.	.	99	i	1
O=[N+]([O-])c1cc(Cl)cc(C2=NCCN2)c1	-0.6	3	79*	84*	107	i	0.79
O=C(N/N=C/C=C\c1ccccc1[N+](=O)[O-])c1cccs1	-0.5	3	-23	100	106	i	1.1
Cc1ccn(C(=O)c2cc3c(C)nn(-c4ccccc4)c3s2)n1	-0.8	-2	-3	164	102	i	0.92
COc1ccc(CSc2nc(C)[nH]c2[N+](=O)[O-])cc1[N+](=O)[O-]	.	.	.	.	99	i	0.97
COC(=O)C1=C(C)N(c2ccccc2)/C(=C/c2cccs2)C1=O	-0.6	-5	.	.	104	i	0.91
CCOC(=O)C(=O)NNc1ccccc1C	-1.1	-14	35	77	77	i	1.1
Cc1ccc2cc(/C=N/NC(=O)CN3CCOCC3)c(Cl)nc2c1	-2.8	-16	-17	76	102	i	0.89
CC(C)CCN1C(=O)c2ccccc2C1C(=O)NCc1cccnc1 (stereo unspecified)	-2.0	-10	0	213	103	i	0.91
O=C(O)c1cccnc1SC1CC(=O)N(Cc2ccccc2)C1=O (stereo unspecified)	-0.9	-3	11	124	104	i	0.9
Cc1cccc(-c2nnc(SCC(=O)Nc3nc4c(s3)CCCC4)n2C)c1	1.4	-2	53	144	100	i	0.91
N/C(=N\OC(=O)c1cccs1)C1(c2ccc(Cl)cc2Cl)CC1	.	.	.	.	97	i	1.3

Some of the entries above, set out differently:
Molecule | GALR2 agonist | PKD1 inh | Insulin prom inh | Insulin prom inh cell count | RGS16-Gao | HSV augment | HSV augment primary fold
CC1CN(S(=O)(=O)c2ccc(C(=O)Nc3nccs3)cc2)CC(C)O1 (stereo unspecified) | . | . | . | . | 88 | i | 0.83
CCC(=O)NC(=S)Nc1ccccc1C(F)(F)F | -0.1 | -5 | 14 | 93 | . | i | 1.1
CCOC(=O)c1ccccc1NC(=S)N1CCC(C)CC1 | -0.4 | -6 | -38 | 128 | 102 | i | 1
Nc1nnc(-c2cccc(F)c2)s1 | . | . | . | . | 102 | i | 0.87
CCOC(=O)c1c(-c2ccc(Cl)cc2)c(C#N)c(=O)n(N)c1N | -1.1 | -3 | -9 | 121 | 47 | i | 0.9
COc1cccc(-c2cc(C(F)(F)F)n3ncc(C(=O)N4CCc5ccccc5C4)c3n2)c1 | . | 7 | . | . | 81 | i | 0.85
Cc1cc(C)c(S(=O)(=O)c2ccccc2)c(N2CCOCC2)n1 | . | -3 | 6 | 74 | 99 | i | 0.97
CCn1c(C(=O)N2CCC(C(=O)NCc3cccs3)CC2)cc2sccc21 | 0.1 | -2 | . | . | 59 | i | 0.94
O=C(CSc1nccc(=O)[nH]1)NN(c1ccccc1)c1ccccc1 | . | -4 | . | . | 108 | i | 1.1
COc1cc(NC(=O)c2nccn2C)cc(C(=O)Nc2cccc(C(F)(F)F)c2)c1 | . | . | . | . | 100 | i | 0.63
CCCOC(=O)c1cc(=O)[nH]c2ccccc12 | 0.4 | 3 | . | . | 93 | i | 0.94
COC1=C(N)C(=O)c2nc(-c3nc(C(=O)O)c(C)c(-c4ccc(OC)c(OC)c4O)c3N)ccc2C1=O | -1.1 | 7 | -376 | 4 | 109 | i | 0.51
COc1ccccc1NC(=O)c1ccc(-c2ccccc2[N+](=O)[O-])o1 | . | 3 | 36 | 90 | 101 | i | 0.94
CC(c1ccccc1)N1CC(C(=O)N2CCN(c3ccccc3)CC2)CC1=O (stereo unspecified) | -2.4 | -10 | . | . | 99 | i | 1
O=[N+]([O-])c1cc(Cl)cc(C2=NCCN2)c1 | -0.6 | 3 | 79* | 84* | 107 | i | 0.79

More results follow:
SMILES	GALR2 agonist	PKD1 inh	Insulin prom inh	Insulin prom inh cell count	RGS16-Gao	HSV augment	HSV augment primary fold
Cc1ccc(C(=O)CSc2nnc(-c3ccccc3N)n2C)cc1	-0.1	4	.	.	97	i	0.89
COc1ccc(/C=N/N=C2\CC3CCC2(C)C3(C)C)cc1O (stereo unspecified)	-1.5	-3	19	117	107	i	1
Oc1c(Br)cc(Br)cc1CNc1ccccn1	.	.	.	.	101	i	0.81
COC(=O)C1=C(C)N(c2ccc(OC)cc2)C(C)=C(C(=O)OC)C1c1ccccc1	.	.	.	.	103	i	1.2
COc1ccc(CNC(=O)c2cc(C)nc3ccccc23)cc1OC	.	-9	41	125	103	i	0.98
OCCC1CN(Cc2cccn2-c2nccs2)CCN1CCc1ccccc1 (stereo unspecified)	.	1	.	.	94	i	1
CC1=CC(C)(C)N(C(=O)CSc2ncn[nH]2)c2ccccc21	-1.6	2	-13	115	109	i	0.76

3 compounds out of the list above, ordered by the value under HSV augment primary fold, highest first:
molecule | HSV augment primary fold
COc1ccccc1Oc1coc2cc(O)ccc2c1=O | 1.1
COC(=O)c1cn(-c2ccccc2)nc1-c1ccccc1 | 0.99
O=c1c2c3c(sc2n2cnnc2n1CCc1ccccc1)CCCC3 | 0.94
